HNF4A DNA FP – change in binding of human HNF4A to DNA, primary screen, biochemical, fluorescence polarization, FITC-DNA; 360,000 compounds, 0.3% hits; 1 h; activity change, % at 10 µM; Hepatocyte nuclear factor 4-alpha (Homo sapiens), P41235; AID 1224865, 2016; in the data active means activity change above about 30%, passing the limit was not always enough;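 further: controls were the assay level and a saturating level of protein; the project sought stronger binding though the title names inhibitors; some compounds called inactive have numbers as strong as hits; positive values seem to mean higher polarization but the record does not say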
Target sequence (P41235 whole entry, looked up): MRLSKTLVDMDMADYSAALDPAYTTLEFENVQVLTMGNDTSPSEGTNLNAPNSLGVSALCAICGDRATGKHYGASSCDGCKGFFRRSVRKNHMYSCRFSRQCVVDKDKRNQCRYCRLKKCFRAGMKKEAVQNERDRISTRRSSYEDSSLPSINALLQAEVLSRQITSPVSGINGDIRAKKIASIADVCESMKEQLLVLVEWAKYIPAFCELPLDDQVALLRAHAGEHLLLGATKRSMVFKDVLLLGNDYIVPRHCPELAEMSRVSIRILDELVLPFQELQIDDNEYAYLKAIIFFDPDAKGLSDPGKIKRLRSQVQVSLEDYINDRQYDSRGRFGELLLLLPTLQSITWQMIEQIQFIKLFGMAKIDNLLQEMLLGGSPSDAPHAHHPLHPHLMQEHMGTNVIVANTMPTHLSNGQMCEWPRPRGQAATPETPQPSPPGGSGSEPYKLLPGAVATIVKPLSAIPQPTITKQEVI
FGF22 binding – binders of human FGF22 protein, primary screen, FGF22 synaptogenesis inhibitor project, biophysical, thermal shift, single point | calls only at 9.99 µM | 340,000 compounds, 1.5% hits | Fibroblast growth factor 22 (Homo sapiens), Q9HCT0 | recombinant FGF22 thermal shift, SYPRO orange fluorescence; percent of sucrose octasulfate shift, DMSO zero;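 active means melting point raised past a set limit in the mean and every replicate; three in four hits are not shown here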
Target sequence (Q9HCT0 whole entry, looked up): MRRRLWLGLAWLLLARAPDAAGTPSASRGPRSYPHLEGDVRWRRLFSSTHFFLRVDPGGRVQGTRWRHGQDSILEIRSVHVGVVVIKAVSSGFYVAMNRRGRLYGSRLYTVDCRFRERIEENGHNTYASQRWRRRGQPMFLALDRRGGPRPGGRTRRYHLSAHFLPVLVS
The depositor's hits bear a star; i = inactive; + = active, no number. The list is partial; the hit share may differ from the screen's.

SMILES	HNF4A DNA FP	FGF22 binding
CCCNC(=O)C1(C)CCCN(C(=O)c2cccc(OC(C)=O)c2C)C1 (stereo unspecified)	3.7	i
O=C(Nc1nnc([C@@H]2C[C@H](O)[C@@H](CO)O2)s1)Nc1cccc2ccccc12	0.5	i
CC1(C)OC2CC3C4CCC5=CC(=O)C=CC5(C)C4(F)C(O)CC3(C)C2(C(=O)CO)O1 (stereo unspecified)	2.4	i
C[C@H]1COc2cccc(N3CCSCC3)c2S(=O)(=O)N1	1.3	i
COc1ccc(CN2C(=O)C(CC(=O)NCc3cccc4ccccc34)CC(C(=O)N(C)C)=C2C)cc1 (stereo unspecified)	-0.4	i
CCC(=O)Oc1ccc(NC(=O)c2ccc(S(=O)(=O)N3CCCC3)cc2)cc1	1.4	i
CCCNC(=O)C1(C)CCCN(C(=O)c2ccc(F)cc2Cl)C1 (stereo unspecified)	1.6	i
COc1ccc(NC(=O)C[C@H]2C(=O)N(Cc3cccnc3)C[C@@H]2Cc2ccccc2)cc1	2.7	i
CCCCn1c(SCCN2CCCCC2)nc2c1c(=O)n(C)c(=O)n2C	8.2	i
Cc1ccccc1-c1cc2nc(NCc3ccc(N(C)C)cc3)n(C)c(=O)c2s1	-0.1	i
CC(=O)Nc1ccc(CNc2nc3cc(-c4ccsc4)sc3c(=O)n2C)cc1	1.3	i
CC(=O)Nc1cc(-c2ccc(CO)cc2)cn2c(-c3ccc(F)c(Cl)c3)cnc12	16	i
COc1ccc(-c2cc(CNc3nc(NC(C)C)nc4cc(-c5ccccc5)sc34)on2)cc1	1.3	i
COc1cc(OC)cc(C2=Cc3ccc(OC)cc3C(CC(C)=O)N2c2ccc(C#CC3(N)CCCCC3)cc2)c1 (stereo unspecified)	0.0	i
COc1ccc2c(c1)CO[C@]21O[C@H](CCO)C[C@H](O)[C@H]1O	-2.6	i
C[C@H](NC(=O)C[C@@H]1C=C[C@@H](NC(=O)CN2CCOCC2)[C@@H](CO)O1)c1ccccc1	-0.5	i
CCN(CC)C(=O)C1=C(C)N(Cc2ccccc2)C(=O)C(CC(=O)NC2CCCC2)C1 (stereo unspecified)	-0.3	i
Cc1ccnc(NCc2cc(Cl)ccc2O)c1	2.8	i
Cc1cccc(C)c1N1C(=O)c2ccccc2NC(=O)C1C(=O)NCc1ccco1 (stereo unspecified)	2.5	i
Cc1cccc(C)c1NC(=O)C(CCc1ccccc1)N1CCC(c2ccccc2)CC1 (stereo unspecified)	-2.8	i
COc1ccc(CCN2CC(C(=O)NCc3ccon3)CCC2=O)cc1 (stereo unspecified)	0.4	i
CCCS(=O)(=O)c1nc(S(=O)(=O)c2ccc(C)cc2)c(N2CCCCC2)s1	-0.1	i
CCOC(=O)[C@]12CCC=C1N(Cc1ccc(Cl)cc1Cl)C(=O)[C@H](CC(=O)N1CCCCC1)C2	0.0	i
CCN(CC)C(=O)C1=C(C)N(CCCN2CCCC2=O)C(=O)C(CC(=O)NCc2ccco2)C1 (stereo unspecified)	3.3	i
CCCc1ccc(C(O)c2ncc(-c3ccc(C)cc3)[nH]2)cc1 (stereo unspecified)	-2.4	i
COc1ccc2cc(C3CC=C(COC(C)=O)CN3S(=O)(=O)c3ccccc3[N+](=O)[O-])n(C(=O)OC(C)(C)C)c2c1 (stereo unspecified)	-6.9	i
Nc1ccc(Oc2ccc(N)c([N+](=O)[O-])c2)cc1[N+](=O)[O-]	6.8	i
CCOC(=O)N(C)c1c(CC)nc2c(OCc3ccc(F)c(F)c3)cccn12	2.1	i
CC1=C(C(=O)N2CCOCC2)CC(CC(=O)NCc2cccs2)C(=O)N1CCC1=CCCCC1 (stereo unspecified)	7.7	i
Cc1ccc(NC(=O)C2(C)CCN2C(=O)c2ccccc2CCc2ccccc2)cc1C (stereo unspecified)	-1.8	i
CC(CCC(=O)O)C1CCC2C3CCC4CC(O)CCC4(C)C3CC(O)C12C (stereo unspecified)	2.9	i
O=C1CCCCc2cc(O)c(O)cc21	-0.7	i
CCCC(=O)N1CCC1(C)C(=O)NS(=O)(=O)c1cccc(F)c1 (stereo unspecified)	-0.8	i
COc1ccc(CN2C[C@@H](CO)O[C@@H](n3cnc4c(N5CCN(C)CC5)ncnc43)C2)cc1	3.0	i
O=C(CCN1C(=O)/C(=C\c2ccccc2F)SC1=S)N1CCOCC1	-1.0	i
CCOC(=O)C1=CC[C@@H](c2ccccc2)N(S(=O)(=O)c2ccc(C)cc2)[C@H]1c1cccc(OC)c1	-1.8	i
CC(C)C[C@@H]1COc2cc(N(C)CCO)ccc2S(=O)(=O)N1	2.3	i
C[C@@H](NC(=O)[C@@H]1CCCN1C(=O)[C@@H]1CCCN1C(=O)OC(C)(C)C)c1ccccc1	-5.0	i
CCCOc1ccc(F)cc1-c1cc(C(=O)NCc2cccc(Cl)c2)[nH]n1	0.2	i
CCCCN(C=O)c1c(CC)nc2ccc(C(=O)N3CCN(S(=O)(=O)CC)CC3)cn12	-1.5	i
CO[C@H]1CN(C)C(=O)c2cc(NC(=O)c3ccccc3)ccc2OC[C@H](C)NC[C@@H]1C	3.4	i
CC1(C(=O)NS(=O)(=O)c2ccccc2Cl)CCN1C(=O)Cc1cc(F)ccc1F (stereo unspecified)	3.0	i
N=c1c2ccccc2nc2n1CCCCCCC2	0.0	i
CN(C)c1ccc(CN2CCC(C(=O)NC(c3ccc(F)cc3)c3ccc4ccccc4n3)CC2)cc1 (stereo unspecified)	-6.1	i
Cn1c(=O)c2cc(NC(=O)NCCc3ccccc3)ccc2n1Cc1ccc(F)cc1	3.5	i

Entries above that contain an aryl methoxy group:
SMILES	HNF4A DNA FP	FGF22 binding
COc1ccc(CN2C(=O)C(CC(=O)NCc3cccc4ccccc34)CC(C(=O)N(C)C)=C2C)cc1 (stereo unspecified)	-0.4	i
COc1ccc(NC(=O)C[C@H]2C(=O)N(Cc3cccnc3)C[C@@H]2Cc2ccccc2)cc1	2.7	i
COc1ccc(-c2cc(CNc3nc(NC(C)C)nc4cc(-c5ccccc5)sc34)on2)cc1	1.3	i
COc1cc(OC)cc(C2=Cc3ccc(OC)cc3C(CC(C)=O)N2c2ccc(C#CC3(N)CCCCC3)cc2)c1 (stereo unspecified)	0.0	i
COc1ccc2c(c1)CO[C@]21O[C@H](CCO)C[C@H](O)[C@H]1O	-2.6	i
COc1ccc(CCN2CC(C(=O)NCc3ccon3)CCC2=O)cc1 (stereo unspecified)	0.4	i
COc1ccc2cc(C3CC=C(COC(C)=O)CN3S(=O)(=O)c3ccccc3[N+](=O)[O-])n(C(=O)OC(C)(C)C)c2c1 (stereo unspecified)	-6.9	i
COc1ccc(CN2C[C@@H](CO)O[C@@H](n3cnc4c(N5CCN(C)CC5)ncnc43)C2)cc1	3.0	i
CCOC(=O)C1=CC[C@@H](c2ccccc2)N(S(=O)(=O)c2ccc(C)cc2)[C@H]1c1cccc(OC)c1	-1.8	i

(more compounds)
SMILES	HNF4A DNA FP	FGF22 binding
CCCCCNC(=O)C(c1ccc(OC)cc1)n1c(=O)c(-c2ccco2)nc2ccccc21 (stereo unspecified)	17	i
CC1(C)Cc2cccc(OCC(=O)OCC(=O)Nc3ccc(S(N)(=O)=O)cc3)c2O1	-4.4	i
C[C@H]1CN([C@@H](C)CO)S(=O)(=O)c2ccc(Br)cc2O[C@H]1CN(C)C(=O)c1cccnc1	2.0	i
CC(=O)NC1(C)CCC2CC1C(C)=NC2(C)C (stereo unspecified)	11	i
CCC(=O)N(C)C[C@H]1Oc2ncc(C#Cc3cccnc3)cc2C(=O)N([C@@H](C)CO)C[C@@H]1C	-1.0	i
O=C(C(=O)N1CCC(Cc2ccccc2)CC1)c1ccccc1Br	-0.8	i
CCCNC(=O)C1(C)CCCN(Cc2ccc3ccccc3c2)C1 (stereo unspecified)	-1.6	i
O=C(NC1CCCCC1)C(C1CC1)n1c(=O)c(-c2cc3ccccc3[nH]2)nc2ccccc21 (stereo unspecified)	2.0	i
Cc1ccc(CN2CC(N3CC=CC3)CS2(=O)=O)cc1 (stereo unspecified)	-1.1	i
C[C@@H]1CCCCO[C@@H](CN(C)S(=O)(=O)c2ccc(F)cc2)[C@@H](C)CN([C@H](C)CO)C(=O)c2cc(NC(=O)c3ccccc3)ccc2O1	1.8	i
CNC(=O)C1CCC(=O)N1Cc1c[nH]c2ccccc12 (stereo unspecified)	0.3	i
CC(C)C[C@H]1CN(CCCC[C@@H]2CNC(=O)C(=O)N2CCc2ccccc2)C(=O)C(=O)N1CCc1ccccc1	6.3	i
COc1ccncc1-c1csc(C(O)c2ccccc2)n1 (stereo unspecified)	5.7	i
CCCCOC(=O)C1=C(C)N(C)C(=O)NC1c1cc2c(cc1Br)OCO2 (stereo unspecified)	-3.3	i
CCNC(=O)C1(C)CCN(C(=O)c2ccccc2)C1 (stereo unspecified)	3.1	i

Record cards, from the list above.
`CCCCOC(=O)C1=C(C)N(C)C(=O)NC1c1cc2c(cc1Br)OCO2` (stereo unspecified) is listed as HNF4A DNA FP = -3.3; FGF22 binding = i
`CCOC(=O)C1=CC[C@@H](c2ccccc2)N(S(=O)(=O)c2ccc(C)cc2)[C@H]1c1cccc(OC)c1` is listed as HNF4A DNA FP = -1.8; FGF22 binding = i

More records.
SMILES	HNF4A DNA FP	FGF22 binding
CN(C)c1cccc(CNC(=O)c2ccc3sc([C@@H]4O[C@H](CO)[C@H](O)[C@H](O)[C@H]4O)nc3c2)c1	0.2	i
COc1ccc(NC(=O)C[C@H]2C(=O)N(c3ccccc3)C[C@@H]2CSC)cc1	2.4	i
Cc1noc(C)c1S(=O)(=O)NC(=O)C1(C)CCN1C(=O)Cc1ccc(-c2ccccc2)cc1 (stereo unspecified)	3.0	i
C=C[C@]1(C)C=C2C(=O)C[C@H]3C(C)(C)CCC[C@]3(C(=O)O)[C@@]2(O)CC1	-1.6	i
O=C(NCc1cccnc1)c1cc(C2CCCN(C(=O)C3CCCCC3)C2)on1 (stereo unspecified)	-0.1	i
CC(C(=O)NCc1ccccc1)n1c(Cc2cc(F)cc(F)c2)nc2ccccc21 (stereo unspecified)	6.5	i
CC1(C(=O)N2Cc3ccccc3C2)CCN1C(=O)C1(c2ccc(Cl)cc2)CC1 (stereo unspecified)	-0.2	i
COCCNc1nc(NCCN2CCNC2=O)c2sccc2n1	5.7	i
O=C1NC(O)CCN1C1CC(O)C(CO)O1 (stereo unspecified)	1.0	i
CS(=O)(=O)c1ccc(Nc2nc(C(N)Cc3ccccc3)cs2)cc1 (stereo unspecified)	-0.2	i
C[C@H](CO)N1C[C@H](C)[C@@H](CN(C)C(=O)Nc2cccc(Oc3ccccn3)c2)OCc2cnnn2CCCC1=O	1.2	i
N#Cc1ccc(-c2nc3ccc(Br)cn3c2Cc2cccc(F)c2)cc1	2.8	i
C[C@@H]1COc2cc(N3CCN(Cc4ccccc4F)CC3)ccc2S(=O)(=O)N1	-3.9	i
CN1C(=O)N(CC(=O)Nc2ccc3c(c2)OCO3)C(=O)C12CCCCC2	-1.8	i
Cc1nc2c(OCc3ccc(C(F)(F)F)cc3)cccn2c1N(C)C(=O)CCC1CCCC1	3.4	i
CN(C)c1ncnc2c1ncn2[C@H]1CN(Cc2ccccc2)C[C@@H](CO)O1	0.6	i
CC1CCCC(NC(=O)COC(=O)c2ccccc2C(=O)N(C)C2CCCCC2)C1C (stereo unspecified)	1.1	i
CCNC(=O)C1(C)CCN(Cc2ccccc2-c2ccccc2)C1 (stereo unspecified)	2.0	i
O=C(CCc1ccc(O)cc1)NN=Cc1ccc2c(c1)OCO2	-3.2	i
O=C(NCc1ccc(Cl)nc1)c1ccc2nc([C@@H]3O[C@H](CO)[C@H](O)[C@H](O)[C@H]3O)[nH]c2c1	3.3	i
CCNC(=S)N1CCC(C(=O)c2ccc(F)cc2)CC1	-1.4	i
CNC[C@@H]1OCc2ccccc2-c2ccccc2C(=O)N([C@@H](C)CO)C[C@@H]1C	-6.2	i
CSCCC(C(=O)NC(C)(C)C)n1c(-c2ccc(C)cc2)nc2ccccc21 (stereo unspecified)	9.1	i
CCCNC(=O)OC1CC2CC1[C@H]1CCCCN1C2=O (stereo partly specified)	-0.7	i
Cc1cccc(C)c1OCCOC(=O)c1ccc(S(=O)(=O)N2CCCC2)cc1	-4.9	i
CC(=O)Nc1cc(-c2ccccc2Cl)cn2c(-c3ccc(S(C)(=O)=O)cc3)cnc12	4.4	+
COc1ccc(OC)c(NC(=O)Nc2nnc(COCCO)s2)c1	4.8	i
COc1ccc(CN2C(=O)C(CC(=O)NC3CCCCC3)CC(C(=O)N(C(C)C)C(C)C)=C2C)cc1 (stereo unspecified)	-0.4	i
COCCNC(=O)C1(C)CCN(C(=O)COc2ccc(Cl)cc2Cl)C1 (stereo unspecified)	0.2	i
CC(=NNC(=S)N1CCCC1)c1ccccn1	0.9	i
CCOc1ccc(C(=O)N[C@H](C(=O)N2CCN(c3ncccn3)CC2)C(C)C)cc1	2.2	i
COc1ccc(-c2nc3ccc(Cl)cn3c2Cc2ccc(C)cc2)cc1OC	16	i
CC(=O)c1cccc(-c2cnc3c(NC=O)cc(-c4cccc(C(=O)N(C)C)c4)cn23)c1	-1.5	i
COc1ccc([C@H]2N[C@]3(CCCN(Cc4ccccc4)C3=O)[C@H]3C(=O)N(Cc4ccccc4)C(=O)[C@@H]23)cc1	4.1	i
O=C(O)Cc1ccc(N2N=C(c3ccccc3)CC2=O)cc1	-0.8	i
Cc1ccc2cc(F)ccc2n1	0.5	i
COC(=O)c1c(C(=O)OC)c2c(-c3ccccc3)cc3cccc1n32	0.6	i
CC1(C(=O)NCc2ccccc2)CCC(=O)N1CCOc1ccccc1 (stereo unspecified)	-1.9	i
O=C(NCc1ccccc1)C(c1ccccc1)n1c(C2CC2)nc2ccccc21 (stereo unspecified)	2.0	i
COc1cc(F)ccc1-c1csc(C(C)(NC(C)=O)c2ccccc2)n1 (stereo unspecified)	-0.7	i
CS(=O)(=O)N1Cc2cc(C(=O)NCC3CC3)nc(-c3cccc(-c4cccnc4)c3)c2[C@H]1CCO	19	i

Source: PubChem
